# Compound activity: PubChem BioAssay, National Center for Advancing Translational Sciences (NCATS)
# Methyltransferases: Primary Screen for Target Class Profiling of Small Molecule Inhibitors of Methyltransferases. purified enzyme, MTase-Glo SAH luminescence; hits give low values. AID 1745853, 2022. 25,000 compounds, 3.9% hits. calls only at 40 µM; active = -50% or lower on at least one of six enzymes; inconclusive = the cases between; inactive = as a rule above -30% on all six;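 further: enzymes were COMT GAMT GNMT HNMT NNMT and PNMT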
#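 Each enzyme was reacted with SAM and its substrate, with compounds tested once at 40 uM; SAH formed was read by MTase-Glo luminescence.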
# Calls only; i = inactive; ? = inconclusive. On the % scale 0 is the no-effect control and ±100 the full control effect. Not all compounds are listed, so the mix of outcomes need not match the whole.
no.	SMILES	Methyltransferases
1	Cc1n[nH]c(C)c1C(N)C(=O)N(Cc1cccnc1)Cc1cccnc1 (configuration not stated)	i
2	COCCn1c(=O)c2c(n1Cc1ccccc1)CN(C(=O)c1cc3ccccc3[nH]1)CC2	i
3	CC1(CO)CC[C@]2(C(=O)O[C@@H]3O[C@H](CO)[C@@H](O)[C@H](O)[C@H]3O)CC[C@]3(C)C(=CCC4[C@@]5(C)CC[C@H](O[C@@H]6O[C@H](C(=O)O)[C@@H](O)[C@H](O)[C@H]6O)C(C)(C)C5CC[C@]43C)C2C1 (some centres not stated)	i
4	Cn1c(CNC(=O)CC2CCOC3(CCN(S(C)(=O)=O)CC3)C2)nc2ccccc21 (configuration not stated)	i
5	Cc1ccc(C)c(C(=O)CSc2nnc3n(CC(C)C)c(=O)c4ccc(C(=O)NC(C)C)cc4n23)c1	i
6	Cc1oc2c(c1C(=O)N1CCOCC1)CN(Cc1cccnc1)CC2	i
7	C/C=C/CCC1Cc2cc(O)c(CCCC)c(O)c2C(=O)O1 (configuration not stated)	i
8	COc1ccc(OC)c(NS(=O)(=O)c2ccc3c(c2)NC(=O)C(C)C(=O)N3)c1 (configuration not stated)	i
9	CC(C)Cn1c(=O)c2ccccc2n2c(CCC(=O)NC3CCC(C)CC3)nnc12 (configuration not stated)	i
10	COc1cccc(CN2C(=O)c3nc4ccccc4n3CC2(C)C(=O)NC2CCCCCC2)c1OC (configuration not stated)	i
11	CCCn1c(=O)c2ccc(C(=O)NC(C)C)cc2n2c(=O)n(Cc3ccc(Cl)cc3)nc12	i
12	CN1C[C@H](C(=O)Nc2ccccc2)C[C@H]1c1cccc(C(F)(F)F)c1	i
13	O=C(c1ccc(Cl)cc1)N1CCN(c2ccc([N+](=O)[O-])c3ncccc23)CC1	i
14	CCC(C)C(=O)O[C@H]1[C@@H](O[C@H]2O[C@H](CO)[C@@H](O)[C@H](O)[C@H]2O)O[C@H](CO)[C@@H](O)[C@@H]1O (some centres not stated)	i
15	C/C(=C\c1ccc(C(=O)O)cc1)c1ccc2c(c1)C(C)(C)CCC2(C)C	i
16	CC1c2cccn2CCN1C(=O)Nc1ccc(F)c(Cl)c1 (configuration not stated)	i
17	COc1ccc(CC(=O)Nc2ccc(N3CCC(NCCc4c(C)n[nH]c4C)CC3)cc2)cc1	i
18	Cc1ccc(C)c(N2CCN(S(=O)(=O)c3cc4c(cc3Cl)n(C)c(=O)n4C)CC2)c1	i
19	CNC(=O)N1CCn2cccc2C1C (configuration not stated)	i
20	COc1cccc(C2c3cccn3-c3sc4c(c3CN2C(=O)Nc2ccccc2Br)CCCC4)c1 (configuration not stated)	i
21	CC(C)c1ccccc1NC(=O)N1CCOC(C(F)(F)F)C1 (configuration not stated)	i
22	NC(=O)COc1ccc(C(=O)N[C@@H]2CN(Cc3ccccn3)CCC[C@H]2O)cc1	i
23	C/C=C/C1=CC2=C(CO1)C(=O)C(C)(OC(=O)c1c(C)cc(O)cc1OC)C(O)C2 (configuration not stated)	i
24	CCOC(=O)c1cnc2c(cnn2CC)c1NN=C(C)C	i
25	CCCn1ncc(CN2CCC(Cc3cccc(C(F)(F)F)c3)(C(=O)OCC)CC2)c1C	i
26	CC1CC(C)CN(S(=O)(=O)c2ccc3c(c2)oc(=O)n3CC(=O)NCc2cccs2)C1 (configuration not stated)	i
27	COc1ccc(S(=O)(=O)NCCc2nc(-c3ccc(F)cc3)n[nH]2)cc1OC	i
28	Cc1cc2c(cc3n2CC(C)(C(=O)NC2CCCCCCC2)N(Cc2cccc(Cl)c2)C3=O)o1 (configuration not stated)	i
29	CCCN1C(=O)c2c(C(=O)Nc3c(C)cccc3C)ncn2CC1(C)C(=O)NCc1ccc(C)cc1 (configuration not stated)	i
30	C=C(CCO)C(=O)OCC1OCC(OC(=O)C(=C)CCO[C@@H]2O[C@H](CO)[C@@H](O)[C@H](O)[C@H]2O)C(O)C1O (some centres not stated)	i
31	Cc1ccc(C(=O)Cn2nc3n(CCC(C)C)c(=O)c4ccc(C(=O)NC5CCCC5)cc4n3c2=O)cc1	i
32	CC1CCN(S(=O)(=O)c2ccc3c(ccn3CC(=O)NCc3ccccc3)c2)CC1	i
33	CN(C)C[C@@H]1CN(c2ccncn2)C[C@H]1NC(=O)Cc1cccs1	i
34	Cc1c(C(=O)N2CCC(C(=O)N3CCN(c4ccccc4)CC3)CC2)oc2cc3sc(N(C)C)nc3cc12	i
35	CC(C)NC(=O)c1ccc2c(=O)n(C(C)C)c3nn(CC(=O)c4ccc(Cl)cc4)c(=O)n3c2c1	i
36	O=C(c1ccc2nccnc2c1)N1CCCCC1	i
37	CC(C)n1c(=O)c2ccc(C(=O)NC3CCCC3)cc2n2c(=O)n(Cc3ccccc3F)nc12	i
38	O=C(NOCC1CC1)c1cc(Br)c(F)c(F)c1Nc1ccc(I)cc1Cl	i
39	CC1=C(C)C(=O)OC(C(C)C2CCC3C4CC=C5CC(OC6OC(COC7OC(CO)C(O)C(O)C7O)C(O)C(O)C6O)CC(O)C5(C)C4CCC23C)C1 (configuration not stated)	i
40	CCC1c2ccc(C)n2CCN1C(=O)Nc1ccc(F)cc1F (configuration not stated)	i
41	Cc1cc(C)cc(N2C(=O)c3ccc(-c4ccco4)n3CC2(C)C(=O)NCc2ccc(Cl)cc2)c1 (configuration not stated)	i
42	CC1CCC(NC(=O)C2(C)Cn3c(cc4occc43)C(=O)N2c2ccc(Cl)cc2)CC1 (configuration not stated)	i
43	Fc1ccc(Nc2nc(-c3ccccc3F)no2)cc1	i
44	CCc1cc2c(cc3n2CC(C)(C(=O)NC2CCCCCC2)N(CCC(C)C)C3=O)s1 (configuration not stated)	i
45	CC1(C(=O)NCc2ccc(F)cc2)Cn2cnc(C(=O)NCCc3ccccc3Cl)c2C(=O)N1C1CC1 (configuration not stated)	i
46	CCCn1c(=O)c2ccccc2n2c(=O)n(CC(=O)Nc3ccc(C)cc3C)nc12	i
47	COc1cc(/C=C2\CC[C@H]3COC[C@@H](c4cc(F)c(F)c(F)c4)N3C2=O)ccc1-n1cnc(C)c1	i
48	CCCN1C(=O)c2c(C(=O)NCCc3ccccc3)ncn2CC1(C)C(=O)NCc1ccc(OC)cc1 (configuration not stated)	i
49	Cc1ccccc1CN1C(=O)c2nc3ccccc3n2CC1(C)C(=O)NC1CCCCC1 (configuration not stated)	i
50	O=C(NC[C@H]1OC[C@@H](NC2CCCCC2)[C@@H]1O)N1CCOCC1	i
51	CCC(C)NC(=O)c1ccc2c(=O)n(C(C)C)c3nn(CC(=O)Nc4cc(C)cc(C)c4)c(=O)n3c2c1 (configuration not stated)	i
52	CC1CCC(NC(=O)c2ccc3c(=O)nc4c(-c5cccc(F)c5)n[nH]n4c3c2)CC1 (configuration not stated)	i
53	Cc1ccc(CCNC(=O)CCn2ccc3cc(S(=O)(=O)N4CCCC4)ccc32)cc1	i
54	Cc1cccc(NS(=O)(=O)c2ccc3[nH]c(=O)[nH]c3c2)c1C	i
55	CC1CCC(NC(=O)CCc2nnc3n(Cc4ccccc4)c(=O)c4ccccc4n23)CC1 (configuration not stated)	i
56	O=C1c2cc3occc3n2CC(C(=O)NC2CCCCCCC2)(c2ccccc2)N1Cc1ccccc1 (configuration not stated)	i
57	O=C(c1ccc(Cl)cc1)N1CC(CO)C2(CCNCC2)C1 (configuration not stated)	i
58	CC(C)CCNC(=O)C1c2c(n(C)c3ccccc23)SCC(=O)N1Cc1ccco1 (configuration not stated)	i
59	COc1ccccc1NC(=O)N1C[C@@H]2C[C@H](C1)c1c(/C=C/c3ccc(Cl)cc3)ccc(=O)n1C2	i
60	Cn1nccc1C(=O)N1CC(c2nc(CCOCC3CCCC3)no2)C1	i

# Additional results:
no.	SMILES	Methyltransferases
61	Cc1ccc(C)c(NS(=O)(=O)c2cc(C(=O)Nc3ccccc3-c3ccccc3)ccc2C)c1	i
62	COCCCNC(=O)C1(C)Cn2nc(-c3ccccc3)cc2C(=O)N1Cc1ccc(F)cc1 (configuration not stated)	i
63	COc1cccc(C(C)N(C)C(=O)c2cc(Cn3ccnc3C(C)C)[nH]n2)c1 (configuration not stated)	i
64	CCC1c2ccc(C)n2CCN1C(=O)NCc1ccc(C)cc1 (configuration not stated)	i
65	CC(C)Cn1c(=O)c2ccccc2n2c(SCc3ccccc3)nnc12	i
66	C=C1/C(=C/C=C2\CCC[C@]3(C)[C@@H]([C@H](C)/C=C/[C@H](O)C4CC4)CC[C@@H]23)C[C@@H](O)C[C@@H]1O	?
67	Cc1ccccc1CN1C(=O)c2cc3sccc3n2CC1(C)C(=O)NC1CCCC(C)C1C (configuration not stated)	i
68	CN1CCN(C2=Nc3ccccc3Oc3ccc(Cl)cc32)CC1	i
69	CCOc1ccccc1CN1C(=O)c2cc(C(C)(C)C)nn2CC1(C)C(=O)NCc1ccccc1 (configuration not stated)	i
70	CCc1cc2c(cc3n2CC(C)(C(=O)NC2CCCCC2)N(c2ccc(C)c(C)c2)C3=O)s1 (configuration not stated)	i
71	COc1cccc(CNC(=O)N2CCn3cccc3C2Cc2ccccc2)c1 (configuration not stated)	i
72	OC[C@H]1O[C@@H](OCCc2ccccc2)[C@H](O[C@@H]2OC[C@](O)(CO)[C@H]2O)[C@@H](O)[C@@H]1O	i
73	Cn1cc(C2=C(c3ccc(Cl)cc3Cl)C(=O)NC2=O)c2ccccc21	?
74	C=C(C)[C@@H]1CC=C(COC(=O)NC(=O)c2ncn3c(=O)n(C)nnc23)CC1	?
75	COc1ccc(CNC(=O)c2cc3n(n2)CC(C)(C(=O)NC2CCCC2)N(C)C3=O)cc1 (configuration not stated)	i

# Copied from above: compounds 74–75
no.	SMILES	Methyltransferases
74	C=C(C)[C@@H]1CC=C(COC(=O)NC(=O)c2ncn3c(=O)n(C)nnc23)CC1	?
75	COc1ccc(CNC(=O)c2cc3n(n2)CC(C)(C(=O)NC2CCCC2)N(C)C3=O)cc1 (configuration not stated)	i

# Part of the list above in order of molecular weight, smallest number first:
no.	SMILES	Methyltransferases
57	O=C(c1ccc(Cl)cc1)N1CC(CO)C2(CCNCC2)C1 (configuration not stated)	i
64	CCC1c2ccc(C)n2CCN1C(=O)NCc1ccc(C)cc1 (configuration not stated)	i
68	CN1CCN(C2=Nc3ccccc3Oc3ccc(Cl)cc32)CC1	i
60	Cn1nccc1C(=O)N1CC(c2nc(CCOCC3CCCC3)no2)C1	i
65	CC(C)Cn1c(=O)c2ccccc2n2c(SCc3ccccc3)nnc12	i
73	Cn1cc(C2=C(c3ccc(Cl)cc3Cl)C(=O)NC2=O)c2ccccc21	?
74	C=C(C)[C@@H]1CC=C(COC(=O)NC(=O)c2ncn3c(=O)n(C)nnc23)CC1	?
71	COc1cccc(CNC(=O)N2CCn3cccc3C2Cc2ccccc2)c1 (configuration not stated)	i
63	COc1cccc(C(C)N(C)C(=O)c2cc(Cn3ccnc3C(C)C)[nH]n2)c1 (configuration not stated)	i
66	C=C1/C(=C/C=C2\CCC[C@]3(C)[C@@H]([C@H](C)/C=C/[C@H](O)C4CC4)CC[C@@H]23)C[C@@H](O)C[C@@H]1O	?
72	OC[C@H]1O[C@@H](OCCc2ccccc2)[C@H](O[C@@H]2OC[C@](O)(CO)[C@H]2O)[C@@H](O)[C@@H]1O	i
58	CC(C)CCNC(=O)C1c2c(n(C)c3ccccc23)SCC(=O)N1Cc1ccco1 (configuration not stated)	i
75	COc1ccc(CNC(=O)c2cc3n(n2)CC(C)(C(=O)NC2CCCC2)N(C)C3=O)cc1 (configuration not stated)	i
62	COCCCNC(=O)C1(C)Cn2nc(-c3ccccc3)cc2C(=O)N1Cc1ccc(F)cc1 (configuration not stated)	i
70	CCc1cc2c(cc3n2CC(C)(C(=O)NC2CCCCC2)N(c2ccc(C)c(C)c2)C3=O)s1 (configuration not stated)	i
69	CCOc1ccccc1CN1C(=O)c2cc(C(C)(C)C)nn2CC1(C)C(=O)NCc1ccccc1 (configuration not stated)	i

# (more compounds)
no.	SMILES	Methyltransferases
76	CC(=O)Nc1ccc(-c2c(C(C)C)nn(-c3cccc(F)c3)c2OC(C)=O)cc1	i
77	NS(=O)(=O)c1ccc(F)c(C(=O)NCc2noc(-c3ccco3)n2)c1	i
78	C=CC(C)(C)C1(CC2NC(=O)C3CCCN3C2=O)C(=O)Nc2cc3c(cc21)C=CC(C)(C)O3 (configuration not stated)	i
79	COCC(=O)NC[C@H]1CCN(Cc2ccc(C)s2)C[C@H]1N(C)C	i
80	Cc1ccc(CN2C(=O)CSc3c(c4ccccc4n3C)C2C(=O)NCc2ccccc2)cc1 (configuration not stated)	i
81	O=C(NC1CCN(c2cc(N3CCOCC3)cnn2)C1)C1CC1 (configuration not stated)	i
82	CC(C)(C)c1cc2n(n1)CC(C)(C(=O)NC1CCCCCC1)N(Cc1ccccc1F)C2=O (configuration not stated)	i
83	COc1ccc2cc3n(c2c1)CC(C)(C(=O)NC1CCCCC1)N(Cc1ccccc1)C3=O (configuration not stated)	i
84	CC(O)C(=O)N1CCc2[nH]nc(C(c3ccccc3)c3ccccc3)c2C1 (configuration not stated)	i
85	Nc1nc(Nc2ccc(S(N)(=O)=O)cc2)n(C(=S)Nc2c(F)cccc2F)n1	i
86	O=C(c1ccoc1)N1CC[C@@H](c2ccc3ccccc3c2)[C@H](O)C1	i
87	O=C(CC(c1ccccc1)c1ccccc1)N1CCN(C(c2ccccc2)c2ccccc2)CC1	?
88	Cc1ccc(N2C(=O)c3cc4sccc4n3CC2(C)C(=O)NC2CCCC(C)C2C)c(C)c1 (configuration not stated)	i
89	O=C(CCc1nnc2n(Cc3ccc(F)cc3)c(=O)c3ccccc3n12)Nc1ccccc1	i
90	CC(=O)N[C@@H]1CN(S(=O)(=O)N2CCOCC2)C[C@H]1c1ccc(C)o1	i
91	O=C(CSc1nc2c(c(=O)n1-c1ccccc1)SCC2)Nc1ccc(-c2ccccc2)cn1	i
92	COc1ccc(C2=NOC3(CCCN([S+](=O)([O-])c4cccc(C(F)(F)F)c4)C3)C2)cc1 (configuration not stated)	i
93	Cn1c(Cn2cccn2)nnc1C1CCCN(C(=O)c2ccoc2)C1 (configuration not stated)	i
94	CCc1cc2c(cc3n2CC(C)(C(=O)NC2CCCCC2)N(Cc2ccc(OC)cc2)C3=O)s1 (configuration not stated)	i
95	CCCCCCCCC(=O)N[C@H](CN1CCCC1)[C@H](O)c1ccc2c(c1)OCCO2	i
